Source: PubChem BioAssay
Mtb H37Rv: M. tuberculosis H37Rv growth inhibitors, H37Rv strain (AID 1626). M. tuberculosis H37Rv growth inhibition; higher % means a stronger effect. inhibition, % at 10 µM; hits with a dose series show IC50 in µM. hit rate 0.95% among 220,000;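 active = confirmed in a dose series; inconclusive = inhibition above 80% but not taken into the dose series; inactive = below 80% or under 30% at every dose of the series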;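 also: bacteria incubated seven days before Alamar blue readout; 0% = bacteria only wells and 100% = bacteria with antibiotic wells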
YopH inh: YopH tyrosine phosphatase inhibitors, primary screen, biochemical, fluorescence Ex485/Em525; YopH tyrosine phosphatase [Yersinia enterocolitica]; inhibition, %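 (about 10 µM by stock and volumes)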; hit rate 0.16% among 140,000;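 active = inhibition of 50% or more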;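 also: controls were vehicle for no effect and minimum signal wells for full effect; inactives centre near -20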
Mtb bLac sens: beta-lactam sensitization of Mtb H37Rv, H37Rv; AID 434955, 2010; hit rate 0.27% among 330,000; M. tuberculosis H37Rv growth with meropenem, percent inhibition; hits of this screen are not shown here; inhibition, % at 25 µM;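 active = about 74% or more and at least 40 points above the plate without the antibiotic, then above 30% in a dose series; inconclusive = first-round hits that could not be retested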;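 also: growth measured after seven days incubation then overnight dye step; 0% = bacteria only wells and 100% = bacteria with antibiotic; twin plates without the antibiotic show which effects depend on it; some results filed as inactive read as strong as hits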
Arbovirus anti: antivirals against arbovirus infection, primary screen, cell-based, full library, 10K replicate subset. arbovirus infection cell-based antiviral screen. inhibition, % at 10 µM. hit rate 0.37% among 200,000;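 active = inhibition from about 30%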;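 also: bluetongue infection of BSR cells; cell survival read as ATP light after 72 h; 0% = infected wells without compound and 100% = uninfected wells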
RecA intein inh: Mtb RecA intein splicing inhibitors, primary screen, biochemical, fluorescence, HTS; Protein RecA (Mycobacterium tuberculosis (strain ATCC 25618 / H37Rv)), P9WHJ3; cell-free RecA intein splicing; inhibition, %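 (about 9 µM by stock and volumes)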; hit rate 0.75% among 290,000; AID 2221, 2009; in the data active = inhibition above about 30%; inconclusive = no clear call, values can overlap the other calls;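 also: 0% = vehicle wells and 100% = reference inhibitor control wells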
Target sequence (P9WHJ3 whole entry, looked up): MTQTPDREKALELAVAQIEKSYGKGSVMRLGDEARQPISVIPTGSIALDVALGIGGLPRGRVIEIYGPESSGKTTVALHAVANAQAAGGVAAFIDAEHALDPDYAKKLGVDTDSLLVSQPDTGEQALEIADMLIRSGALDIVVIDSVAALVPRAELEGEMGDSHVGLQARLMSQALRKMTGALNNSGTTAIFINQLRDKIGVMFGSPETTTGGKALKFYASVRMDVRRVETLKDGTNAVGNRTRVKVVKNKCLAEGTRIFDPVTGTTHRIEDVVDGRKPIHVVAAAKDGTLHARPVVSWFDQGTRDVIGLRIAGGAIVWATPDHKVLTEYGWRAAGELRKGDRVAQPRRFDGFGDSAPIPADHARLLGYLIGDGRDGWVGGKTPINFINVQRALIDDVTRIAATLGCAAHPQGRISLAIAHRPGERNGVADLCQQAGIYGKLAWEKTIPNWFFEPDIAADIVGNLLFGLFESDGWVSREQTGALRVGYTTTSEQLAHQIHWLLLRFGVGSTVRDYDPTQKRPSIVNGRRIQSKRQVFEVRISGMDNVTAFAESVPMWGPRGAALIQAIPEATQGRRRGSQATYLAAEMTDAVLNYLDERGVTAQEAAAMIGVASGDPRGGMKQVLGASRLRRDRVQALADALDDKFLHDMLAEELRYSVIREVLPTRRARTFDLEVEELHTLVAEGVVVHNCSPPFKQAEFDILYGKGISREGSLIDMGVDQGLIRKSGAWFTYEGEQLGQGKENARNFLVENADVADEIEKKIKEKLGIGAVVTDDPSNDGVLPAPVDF
Arbovirus anti repeat: further read-out of Arbovirus anti, marked with its call; inhibition, %; measured here: 10K subset replicate screen; many hits read low in the repeat;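 first of two repeat runs on a subset; 0% = infected and 100% = uninfected wells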
* marks the source's active call; other numbers are inactive results; i = inactive; u = inconclusive; x = not tested or not shown. The list is partial; count on the stated rates, not on these rows.

A first look:
SMILES	Mtb H37Rv	YopH inh	Mtb bLac sens	Arbovirus anti	RecA intein inh	others
O=C(Nc1ccc2oc(-c3cccnc3)nc2c1)c1cccnc1	-9%	-27	6	5	x
Cc1nn(-c2ccc(Cl)cc2)c2[nH]c(CCl)cc(=O)c12	x	x	4	x	3.7

Main list (from the top)
SMILES	Mtb H37Rv	YopH inh	Mtb bLac sens	Arbovirus anti	RecA intein inh	others
O=C(Nc1ccc2oc(-c3cccnc3)nc2c1)c1cccnc1	-9%	-27	6	5	x
Cc1nn(-c2ccc(Cl)cc2)c2[nH]c(CCl)cc(=O)c12	x	x	4	x	3.7
Cc1ccc(S(=O)(=O)N2C(=O)CCC2C(=O)O/N=C(\N)c2ccc([N+](=O)[O-])cc2)cc1 (stereo not given)	x	x	5	x	0.4
Cc1cc(C)cc(N(C(=O)CNC(=O)c2ccco2)C(C(=O)NC2CCCC2)c2cccnc2)c1 (stereo not given)	-5%	-16	-2	-3	0.8
CC[n+]1c(C)sc2cc(C)ccc21	1%	x	9	-12	-1.6
CCN(c1ccc(F)cc1)S(=O)(=O)c1ccc2[nH]cc(C(=O)NCCCN3CCOCC3)c(=O)c2c1	6%	x	-7	3	0.1
CC(C)(C)c1cc(NS(=O)(=O)c2ccc(Br)s2)no1	x	x	0	x	3.7
O=C1Nc2c(c(=O)[nH]c(=O)n2-c2ccccc2F)C(C(F)(F)F)(C(F)(F)F)N1	-6%	-26	44	-4	0.4
COc1ccc(N2C(=O)CC(NNC(=O)c3ccc(Br)s3)C2=O)cc1 (stereo not given)	0%	x	-5	-2	-1.0
CC1CCCCN1CCCNc1c(C=O)c(=O)[nH]c2ccccc12 (stereo not given)	x	x	-5	x	-0.6
Cc1ccc(-c2ccc([C@H]3[C@H]4C=CC[C@@H](C)[C@@H]4C(=O)N3Cc3ccccc3)c(F)c2)cc1	10%	x	21	x	19
CCOC(=O)/C(C(N)=NC(C)C)=C(\O)c1ccccc1	-3%	1	-23	-1	x
Cc1ccccc1-c1nc(CN2CCC(C(=O)NCCN3CCOCC3)CC2)c(C)o1	x	x	-3	x	-0.5
Cc1ccc(C(=O)NCC(=O)OC(C)C(=O)Nc2ccc(N(C)C)cc2)cc1C (stereo not given)	-1%	x	0	-4	-1.5
COc1ccc(C)cc1Nc1n[n+](-c2ccccc2)c(-c2cc([N+](=O)[O-])cc(OC)c2O)s1	x	x	-4	x	3.6
CC(C)(C)CN1C(N)=NC[C@H]1Cc1ccc(O)cc1	-6%	x	-9	x	-4.4
COC(=O)N1CCN(c2ccc(C(C)=O)cc2)CC1	2%	-19	-8	11	-0.9
CNC(=O)c1[nH]cnc1C(=O)N[C@@H](CC(C)C)C(=O)OCc1ccccc1	-10%	x	-3	-3	-2.6
O=C(CCn1c(=S)oc2ccccc21)N1CCCCC1	3%	x	-2	14	1.6
O=C(Nc1cccc2c1CCCC2)C1CCCN(S(=O)(=O)c2cccc3nonc23)C1 (stereo not given)	10%	-16	-9	-10	7.4

Seven structures already listed, sorted by molecular weight, low to high:
SMILES	Mtb H37Rv	YopH inh	Mtb bLac sens	Arbovirus anti	RecA intein inh	others
O=C(CCn1c(=S)oc2ccccc21)N1CCCCC1	3%	x	-2	14	1.6
CC1CCCCN1CCCNc1c(C=O)c(=O)[nH]c2ccccc12 (stereo not given)	x	x	-5	x	-0.6
CC(C)(C)c1cc(NS(=O)(=O)c2ccc(Br)s2)no1	x	x	0	x	3.7
Cc1ccc(C(=O)NCC(=O)OC(C)C(=O)Nc2ccc(N(C)C)cc2)cc1C (stereo not given)	-1%	x	0	-4	-1.5
Cc1ccccc1-c1nc(CN2CCC(C(=O)NCCN3CCOCC3)CC2)c(C)o1	x	x	-3	x	-0.5
COc1ccc(C)cc1Nc1n[n+](-c2ccccc2)c(-c2cc([N+](=O)[O-])cc(OC)c2O)s1	x	x	-4	x	3.6
CCN(c1ccc(F)cc1)S(=O)(=O)c1ccc2[nH]cc(C(=O)NCCCN3CCOCC3)c(=O)c2c1	6%	x	-7	3	0.1

Going on with the list.
SMILES	Mtb H37Rv	YopH inh	Mtb bLac sens	Arbovirus anti	RecA intein inh	others
COc1ccc(N2CCN(C(=O)C3CCN(S(=O)(=O)c4cccs4)CC3)CC2)cc1	-2%	x	3	-2	-0.2
COc1cc2c(cc1OC)CN(C(=O)CC1CC3CCC1C3)CC2 (stereo not given)	-3%	-3	4	4	4.9
Cc1ccc(N2CCN(C(=O)CN3C(=O)c4ccccc4C3=O)CC2)cc1	3%	-22	-1	0	3.3
Cc1onc(-c2ccccc2)c1C(=O)Nc1sccc1C#N	x	x	-3	x	0.1
O=C(NNC1CC(=O)N(c2cccc(Cl)c2)C1=O)c1cccs1 (stereo not given)	-6%	-34	0	0	-2.0
N#Cc1ccc(OCc2noc(-c3ccsc3)n2)cc1	5%	x	-3	x	1.3
C#CC[N+](C)(C)CCCCCCCCC	-13%	-37	1	-25	-0.9
CCc1cc(=O)oc2cc(O[C@@H]3O[C@H](CO)[C@@H](O)[C@H](O)[C@H]3O)c(Cl)cc12	x	x	5	x	0.0
N#CCCS(=O)(=O)c1nnnn1-c1ccccc1	4%	-17	62	x	x
CCOC(=O)c1ccccc1NC(=O)COC	-6%	-27	-7	-6	-1.8
Cc1ccc(Nc2nc(N)nc(CSc3nccn3C)n2)c(C)c1	5%	-8	-10	5	-4.9
CCOc1ccc(NC(=O)C2CC(=O)N(CC)C(=Nc3ccc4c(c3)OCO4)S2)cc1 (stereo not given)	8%	3	-3	-7	-3.1
O=C1/C(=C/c2cccs2)COc2ccccc21	5%	-50	3	-5	6.7
C=CCN1C(=O)C(CC(=O)NCC)SC1=Nc1ccccc1CC (stereo not given)	x	x	0	x	-0.6
CCOC(=O)c1c(S(=O)(=O)NCC(=O)Nc2cccc(C)c2C)c(C)n(C)c1C	x	x	-1	x	-5.9
COc1ccc(O)c(C(=O)c2cnc3c(c2)CN(C)C(=O)N3)c1	-1%	x	-2	-6	-2.1
CCOC(=O)C1(Cc2ccc(OC)cc2)CCN(C(=O)Cn2cnnn2)CC1	6%	x	-3	4	1.7
COCC(C)n1c(SCc2ccc(C(=O)OC)o2)nc2ccccc2c1=O (stereo not given)	-4%	-37	8	27	7.5
CON(c1nc(Cl)nc(N(C)C)n1)S(=O)(=O)c1ccc(C)cc1	x	x	u	x	5.1
Nc1nc(Cl)cc(N2CCOCC2)n1	-6%	-39	-3	10	-2.1
COc1ccc([N+](=O)[O-])cc1NC(=O)Cc1ccc(C)cc1	9%	-14	-6	-3	-1.3
C/C(=N\NC(=S)NCc1ccccc1)c1ccc(C#N)cc1	5%	x	-5	4	x
Cc1cccc(CC(=O)NC2CCCCCC2)c1	x	x	2	x	0.2
CCCN(CCC)C1=CC(=[N+]2CCCC2)CC(C)(C)C1	4%	-24	-5	4	1.7
CCOc1ccc(CC(=O)NNC(=O)NC2CCCCC2)cc1	-6%	x	-4	-2	-1.8
NC(=S)Nc1ncc(C(F)(F)F)cc1Cl	0%	x	-10	6	-6.6
CCC(=O)c1cc(F)c(N2CCN(S(=O)(=O)c3ccccc3)CC2)cc1C	9%	-8	0	-14	7.2	Arbovirus anti repeat=-7
CSCCC(NC(N)=O)C(=O)NCC1CCCCC1 (stereo not given)	4%	-45	7	1	-0.6
CCOC(=O)C1CCCN(C(=O)CSc2ccc(NC(C)=O)cc2)C1 (stereo not given)	-15%	x	-4	12	-1.2
C#CC(CO)N(CCN(Cc1ccccc1)C(C#C)CO)Cc1ccccc1 (stereo not given)	6%	-14	-1	-2	8.6
CCCn1c(C)cc(C=O)c1C	-12%	x	-12	0	-1.4
Cc1cc(N2CCOCC2)nc2ccc(NC(=O)CCC(=O)N3CCN(c4ccccc4F)CC3)cc12	x	x	-4	x	-2.5
COc1ccccc1C(=O)NNC(=S)NC(=O)c1sc2ccccc2c1Cl	u	-16	98	-4	4.1
O=C(Nc1ccccc1N1CCN(C(=O)c2ccccc2)CC1)c1cc2ccccc2o1	8%	-25	8	-6	x
O=C(NCc1ccccc1)c1ccc(=O)oc1	-9%	x	-3	x	-1.0
O=C1C2C3C=CC(C2C(=O)N1CCCO)C1C2C(=O)N(CCCO)C(=O)C2C31 (stereo not given)	-1%	-7	-3	5	-0.3
O=C(Cn1c(=O)oc2cc(S(=O)(=O)N3CCOCC3)ccc21)N1CCc2ccccc2C1	-1%	-34	1	-5	x	Arbovirus anti repeat=-4
COc1cccc(/C=N/NC(=O)CN2CC(c3ccccc3)CC2=O)c1O (stereo not given)	-3%	-23	28	-14	-3.6
Cc1[nH]c(=O)[nH]c(=O)c1S(=O)(=O)N1CCC(C(=O)N2CCN(Cc3ccccc3)CC2)CC1	3%	-7	-2	7	0.9
CC(=O)n1nc(-c2ccccc2)cc1-c1ccccc1	x	x	16	x	3.2
C=CCN=c1sc(C(=O)OC)cc(=O)n1CC=C	-2%	-35	16	4	3.1
c1ccc(COc2ccc(OCCN3CCCCC3)cc2)cc1	-2%	-28	-2	-20	6.5
CCN(CC)C(=O)c1csc(Nc2ccc(C)cc2)n1	-1%	-50	-1	-12	0.2
Cc1ccc(NC(=O)CCc2c(C)nc3ncnn3c2C)nc1	-2%	0	4	10	-1.5
O=C(CNC(=S)N(Cc1ccccc1Cl)C1CCCC1)NCCCN1CCOCC1	4%	x	-7	-1	-3.7
O=C(c1ccc(Cl)c([N+](=O)[O-])c1)N(Cc1ccc(Cl)cc1)C1CCS(=O)(=O)C1 (stereo not given)	-2%	-23	-6	-3	x
CCN(CC)S(=O)(=O)c1ccc(OC)c(NC(=O)Cc2cccs2)c1	-11%	x	-9	-1	-1.2
Cc1nc2ccc(C(=O)N3CCCC(CO)(Cc4ccc(F)cc4F)C3)cc2nc1C (stereo not given)	x	x	5	x	-0.7
O=C1Nc2ccccc2C12OCCCO2	3%	-24	-7	2	-1.1
CCOC(=O)NC1c2ccccc2Oc2ccccc21	14%	x	x	x	3.3
CCCc1ccc(OCCNC(=O)c2ccccc2Br)cc1	x	x	-5	x	4.9
Nc1c(Cl)ncnc1N/N=C/c1ccnc2ccccc12	2%	9	-4	-15	-1.3
COc1ccc(N(C(=O)c2snc(C(N)=O)c2N)C(C(=O)NC2CCCC2)c2ccc3ncccc3c2)cc1 (stereo not given)	x	x	2	x	-2.5
CCOC(=O)c1cnc2ccc(C)cc2c1Sc1ccccc1	3%	-23	60	10	63*
CCOC(=O)c1c(CN(CC)CC)n(C)c2cc(Br)c(O)cc12	-11%	x	-7	x	-9.0
COc1ccc(CCNC(=O)c2nnc(Cc3c(F)cccc3Cl)o2)cc1OC	-2%	-44	-5	3	2.3
Cc1ccc(OCCCC(=O)NCc2ccco2)cc1	6%	-16	-2	-3	-0.1
CC(C)N(C(C)C)S(=O)(=O)c1ccc(NC(=O)c2cnccn2)cc1	x	x	-6	x	1.4
COc1cccc(NC(=S)/C(=C(\[O-])c2ccc(OC(F)F)cc2)[n+]2ccccc2)c1	0%	x	4	1	37*
O=C(Nc1cccc(Cl)c1N1CCOCC1)c1ccc2c(c1)OCCO2	4%	x	18	2	4.7
The listing continues:
SMILES	Mtb H37Rv	YopH inh	Mtb bLac sens	Arbovirus anti	RecA intein inh	others
Cn1c(=O)n(C)c2cc([N+](=O)[O-])c(N3CCN(C(=O)C(C)(C)C)CC3)cc21	-3%	x	-6	-1	0.3
COc1ccccc1N1CCN(C2CCCN(C(=O)CCN3CCCCO3)C2)CC1 (stereo not given)	x	x	-1	x	1.2
C=CCN(C(=O)CSc1nc2ccsc2c(=O)n1Cc1ccccn1)c1ccccc1	1%	x	-9	-3	x
N#Cc1c2ccc(O)cc2n2ccccc12	8%	x	63	3	i
CC1CCCCN1S(=O)(=O)c1cccc2nonc12 (stereo not given)	x	x	-6	x	-1.2
COCc1[nH][nH]c(=O)c1C=Nc1ccc(OC(F)(F)F)cc1	0%	x	7	7	1.4
CCn1c(Cc2ccccc2)nnc1SCC(=O)Nc1ccccc1N1CCOCC1	-6%	-7	3	2	-4.6
CC(=O)c1cccc(NS(=O)(=O)c2ccc(N/C=C\C(=O)c3ccc(F)cc3)cc2)c1	18%	-9	-2	12	2.1
COc1ccc2[nH]cc(C(=O)CN3CC(C)CC(C)C3)c2c1 (stereo not given)	x	x	-6	x	2.1
COc1ccc(CC(=O)NCc2ccc(-n3cccc3)cc2)cc1OC	x	x	-5	x	-0.1
Cc1ccc(S(=O)(=O)N2CCN(C)CC2)c(C)c1	-2%	-23	6	3	0.5
C(=N\NC1=Nc2cccc3cccc1c23)/c1cccnc1	69%	x	93	6	-8.6
